Screens (PubChem)
VACV mCherry inh – vaccinia inhibition (mCherry reporter); Vaccinia virus mCherry reporter infection, fluorescence; about a quarter of the inactives have no number; 310,000 compounds, 0.63% hits; AID 720579; Potency, µM (doses to about 36.5 µM), for inactives: at the highest dose activity change, negative = inhibition, usual class: inhibitors; active = well fitted inhibition curve with a large enough effect; inconclusive = small, poorly fitted or top-dose-only effect; inactive = no such curve, though single readings can be large or run the other way; tested in A549 cells; note: nearly all actives have a fitted effect of over 35% in size; inactives centre near -10
Vaccinia Venus – vaccinia inhibition (Venus reporter) | Vaccinia virus Venus reporter expression, fluorescence | Potency, µM (highest dose often 36.5 µM), for the others: top-dose activity change, negative = inhibition, hits mostly inhibitors | 330,000 compounds, 0.46% hits; active means well fitted inhibition curve with a large enough effect; inconclusive means small, poorly fitted or top-dose-only effect; inactive means no such curve, though single readings can be large or run the other way; tested in A549 cells; note: nearly all actives have a fitted effect of over 30% in size; inactives centre near -10
Active calls of the source: *; i = inactive; ? = inconclusive; . = not tested or not shown; & = joins results of further samples; [ ] = another dose, or the depositor's remark. % is set by controls: 0 for no effect and ±100 for the full control effect; potency is the fitted concentration of half-maximal effect. Rows were taken by chance; any-hit rate near 0.86%.

1	CN(C)C(=O)c1cc(F)ccc1Sc1cc(Cl)ccc1Cl
  VACV mCherry inh = .
  Vaccinia Venus = -9.9%
2	Cc1ccc([N+](=O)[O-])c(C(=O)N/N=C/c2cccnc2)c1
  VACV mCherry inh = -13.5%
  Vaccinia Venus = -4.1%
3	CCOc1ccc(CCNC(=O)c2cn(-c3ccc(OC)cc3)c(=O)c3ccccc23)cc1OCC
  VACV mCherry inh = -16.1%
  Vaccinia Venus = -10.4%
4	COc1cc2c(OC(C)=O)c3c(c(-c4ccc5c(c4)OCO5)c2cc1OC)C(=O)OC3
  VACV mCherry inh = ?
  Vaccinia Venus = ?
5	CN1CCN(NC(=O)Nc2cccc(F)c2)CC1
  VACV mCherry inh = -16.8%
  Vaccinia Venus = -18.2%
6	COc1ccc(C)cc1NC(=O)CN1C(=O)c2ccccc2S1(=O)=O
  VACV mCherry inh = 0.8%
  Vaccinia Venus = 5.9%
7	CCOc1ccc(NC(=O)COc2ccc(S(=O)(=O)NC3CCCCC3)cc2)cc1
  VACV mCherry inh = -20.9%
  Vaccinia Venus = -19.7%
8	O=C(NCc1cccc(F)c1)c1ccc2nc(N3CCOCC3)sc2c1
  VACV mCherry inh = 31.9%[activator]
  Vaccinia Venus = -17.7%
9	COc1ccc(/C=C2\C(=O)NC(=O)c3ccccc32)cc1OC
  VACV mCherry inh = -1.3%
  Vaccinia Venus = -16.7%
10	O=[N+]([O-])c1ccccc1S(=O)(=O)Nc1cccc2cccnc12
  VACV mCherry inh = ?
  Vaccinia Venus = ?
11	Cn1ncc(Cl)c1C(=O)N1CCN(c2ccc(Cl)c(Cl)c2)CC1
  VACV mCherry inh = -14.4%
  Vaccinia Venus = -14.2%
12	CCOC(=O)c1ccc(NC(=O)Nc2c[nH]c(=O)[nH]c2=O)cc1
  VACV mCherry inh = -9.0%
  Vaccinia Venus = -6.4%
13	CC(C)Cc1nnc(NC(=O)C2CSC3(C)CCC(=O)N23)s1 (stereo not drawn)
  VACV mCherry inh = i
  Vaccinia Venus = -7.6%
14	CC[N+](C)(CC)CCC[n+]1c(-c2ccccc2)c2cc(N)ccc2c2ccc(N)cc21
  VACV mCherry inh = -12.7%
  Vaccinia Venus = -9.7%
15	COC(=O)[C@@H](NC(=O)Nc1ccc(S(N)(=O)=O)cc1)C(C)C
  VACV mCherry inh = -10.6%
  Vaccinia Venus = -1.3%

16	CCOC(=O)CSc1nnc(CNC(=O)c2ccc([N+](=O)[O-])cc2)n1C
  VACV mCherry inh = -2.8%
  Vaccinia Venus = -4.3%
17	CCOC(=O)CNC(=O)COc1coc(CN2CCN(c3ccccc3)CC2)cc1=O
  VACV mCherry inh = -14.8%
  Vaccinia Venus = -5.9%
18	Cc1ccccc1-c1nc(CN2CCC(C(=O)NCc3ccccc3Cl)CC2)c(C)o1
  VACV mCherry inh = -12.8%
  Vaccinia Venus = -13.2%
19	O=C(N[C@@H](Cc1ccccc1)C(=O)OCc1ccccc1)c1nc[nH]c1C(=O)NC1CCNCC1
  VACV mCherry inh = i
  Vaccinia Venus = -4.2%
20	Brc1ccc(-c2csc(/N=C/N3CCOCC3)n2)cc1
  VACV mCherry inh = .
  Vaccinia Venus = ?
21	CCOCCCNC(=S)N1CCCN(c2nc3cc(C)cc(C)c3cc2C#N)CC1
  VACV mCherry inh = ?
  Vaccinia Venus = -28.2%
22	O=C(CCS(=O)(=O)c1nc(-c2cccs2)cc(C(F)(F)F)n1)Nc1cc(Br)ccc1O
  VACV mCherry inh = -13.9%[7.34 µM]
  Vaccinia Venus = -9.9%[7.34 µM]
23	CC1(c2nnc(-c3cccc(Cl)c3)o2)CC(c2ccc(Br)cc2)=NO1 (stereo not drawn)
  VACV mCherry inh = -7.8%
  Vaccinia Venus = -6.9%
24	COc1ccc(-c2cc(C(=O)NC(C)c3ccccc3)c3cc(C(C)C)ccc3n2)cc1 (stereo not drawn)
  VACV mCherry inh = -23.8%
  Vaccinia Venus = -20.1%
25	CCCCn1c(N)c(N(CC)C(=O)c2cc(S(=O)(=O)N3CCN(CC)CC3)ccc2Cl)c(=O)[nH]c1=O
  VACV mCherry inh = -19.0%
  Vaccinia Venus = -5.0%
26	O=C(Nc1cccnc1Cl)c1cc(-c2ccccc2O)on1
  VACV mCherry inh = ?
  Vaccinia Venus = -12.1%
27	COc1ccc2oc(C(=O)NCCC(C)C)c(C)c2c1
  VACV mCherry inh = i
  Vaccinia Venus = -15.7%
28	Cc1ccc(CNc2oc(C)nc2C#N)cc1
  VACV mCherry inh = -25.3%
  Vaccinia Venus = -20.0%
29	CCc1nc2ccccc2c(=O)n1NCCc1ccccc1
  VACV mCherry inh = -1.6%
  Vaccinia Venus = 1.0%
30	CCOC(=O)c1cccc(NC(=O)NC(C)c2c(-n3cccc3)sc3c2CCN(C)C3)c1 (stereo not drawn)
  VACV mCherry inh = -23.5%
  Vaccinia Venus = -15.2%

31	CC(C)CC1(C(=O)NCc2cc(F)cc(C(F)(F)F)c2)C=CCN1C(=O)c1ccccc1 (stereo not drawn)
  VACV mCherry inh = -3.4%
  Vaccinia Venus = -29.4%
32	Cc1c(CCNC(=O)c2ccc(Br)o2)sc2nc(-c3ccc(F)cc3)nn12
  VACV mCherry inh = ?
  Vaccinia Venus = ?
33	CCCCc1ccc(NC(=O)CN2C(=O)C3CCCCC3C2=O)cc1 (stereo not drawn)
  VACV mCherry inh = -10.8%
  Vaccinia Venus = -25.0%
34	Cc1cc(-n2c(C)cc(C(=O)CN3C(=O)NC4(CCCCC4)C3=O)c2C)no1
  VACV mCherry inh = 0.8%
  Vaccinia Venus = -8.8%
35	C=CCNC(=S)NNC(=O)C(CCC(C)C)CC(C)(C)O (stereo not drawn)
  VACV mCherry inh = -16.4%
  Vaccinia Venus = -4.4%
36	O=c1[nH]c(SCc2c(F)cccc2Cl)nc2c1CCC2
  VACV mCherry inh = -12.0%
  Vaccinia Venus = -7.4%
37	CC(CCc1ccccc1)NC(=O)CN1CCc2ccccc2C1 (stereo not drawn)
  VACV mCherry inh = -15.3%
  Vaccinia Venus = -17.4%
38	COc1ccc(/C=C(\NC(=O)c2cccs2)C(=O)Nc2cccc3ccccc23)cc1OC
  VACV mCherry inh = -12.0%
  Vaccinia Venus = -4.6%
39	Cc1ccc2c(=O)cc(C(=O)Nc3sc4c(c3C(=O)NCC3CCCO3)CCCC4)oc2c1 (stereo not drawn)
  VACV mCherry inh = -8.3%
  Vaccinia Venus = 5.8%
40	O=C(NCc1ccc2c(c1)OCO2)c1ccccc1Cl
  VACV mCherry inh = -0.9%
  Vaccinia Venus = 12.1%
41	CC(C)CCNC(=O)NC(=O)COc1c(F)c(F)cc(F)c1F
  VACV mCherry inh = .
  Vaccinia Venus = -10.4%
42	COc1ccc(OC)c(C2CC(=O)Nc3c2c(=O)[nH]c2ncnn32)c1 (stereo not drawn)
  VACV mCherry inh = 3.7%&6.9%
  Vaccinia Venus = -3.7%&4.6%
43	COc1cccc(CNC(=O)C2CCN(S(=O)(=O)c3ccc(Br)s3)CC2)c1
  VACV mCherry inh = -25.8%
  Vaccinia Venus = -3.8%
44	O=C1C2C(C(=O)N1c1ccccc1)N1CCCN1C2c1ccccc1 (stereo not drawn)
  VACV mCherry inh = -19.7%
  Vaccinia Venus = 2.4%
45	O=C1OC(c2ccc(O)cc2)(c2ccc(O)cc2)c2ccccc21
  VACV mCherry inh = -7.8%&-16.0%
  Vaccinia Venus = ?

Some of the entries so far, in markdown.
| no. | canonical_smiles | VACV mCherry inh | Vaccinia Venus |
| --- | --- | --- | --- |
| 40 | O=C(NCc1ccc2c(c1)OCO2)c1ccccc1Cl | -0.9% | 12.1% |
| 41 | CC(C)CCNC(=O)NC(=O)COc1c(F)c(F)cc(F)c1F | . | -10.4% |

The list goes on:
46	CCS(=O)(=O)N1CC(=O)N(c2cc(C)ccc2C)C(C)(C(=O)NC2CCCCC2)C1 (stereo not drawn)
  VACV mCherry inh = -9.3%
  Vaccinia Venus = -8.5%
47	CC(C)Oc1cccc(C(=O)Nc2ncn[nH]2)c1
  VACV mCherry inh = i
  Vaccinia Venus = -7.3%
48	COc1ccccc1Cc1noc(C(C)(C)NC(=O)c2ccccc2)n1
  VACV mCherry inh = i
  Vaccinia Venus = -18.5%
49	CC(=O)c1ccc(NC(=O)CSc2c(C(C)C)cnc3c2c(=O)n(C)c(=O)n3C)cc1
  VACV mCherry inh = -17.2%
  Vaccinia Venus = -22.0%
50	O=C(NC1CCCCC1)C(c1ccccc1)n1c(=O)c(-c2ccco2)nc2ccccc21 (stereo not drawn)
  VACV mCherry inh = -0.6%
  Vaccinia Venus = 5.4%
51	CC(C)c1cc(C(=O)N2CCCC(C(=O)c3ccc4ccccc4c3)C2)on1 (stereo not drawn)
  VACV mCherry inh = i
  Vaccinia Venus = -14.9%
52	Cn1c(-c2ccc(F)cc2)cnc1NCc1ccc(F)cc1
  VACV mCherry inh = ?
  Vaccinia Venus = ?
53	CC1(C)CC(=O)C2=C(C1)c1c(ccc3ncccc13)NC2c1cccs1 (stereo not drawn)
  VACV mCherry inh = ?
  Vaccinia Venus = ?
54	O=C(CN1Cc2ccccc2OC(c2ccccc2F)C1)NC(c1ccccn1)C(F)(F)F (stereo not drawn)
  VACV mCherry inh = -11.8%
  Vaccinia Venus = -2.5%
55	O=C(c1ccc(Cl)c(S(=O)(=O)N2CCOCC2)c1)N1CCN(Cc2ccccc2)CC1
  VACV mCherry inh = -17.2%
  Vaccinia Venus = -17.4%
56	COc1ccccc1N(C)S(=O)(=O)c1ccc(Cl)c(C(=O)NC2=NCCS2)c1
  VACV mCherry inh = -1.0%
  Vaccinia Venus = -9.5%
57	Cc1cc(NS(=O)(=O)c2ccc(NC(=O)CCCOc3ccc(Cl)cc3)cc2)no1
  VACV mCherry inh = -2.4%
  Vaccinia Venus = -1.3%
58	CC(C(=O)NC(C)(C)C)N(C(=O)CS(=O)CC(=O)Nc1ccc(F)cc1)C1CCCC1 (stereo not drawn)
  VACV mCherry inh = -18.3%
  Vaccinia Venus = -2.7%
59	CCOc1ccc(S(=O)(=O)NC2CCCC2)cc1C
  VACV mCherry inh = -0.8%
  Vaccinia Venus = -15.4%
60	COc1ccc(NC(=O)CCCC(=O)OCC(=O)c2cccc(OC)c2)cc1
  VACV mCherry inh = -17.5%
  Vaccinia Venus = -16.1%

61	CCOC(=O)c1sc(=S)sc1SCc1cccc(C(F)(F)F)c1
  VACV mCherry inh = .
  Vaccinia Venus = 1.4%
62	Fc1cccc2sc(Nc3nc4cc5c(cc4s3)OCO5)nc12
  VACV mCherry inh = ?
  Vaccinia Venus = -17.8%
63	O=C(O)CC/C(=C\c1ccc(N2CCOCC2)c([N+](=O)[O-])c1)c1nc2ccccc2s1
  VACV mCherry inh = i
  Vaccinia Venus = -13.7%
64	O=P(OC1=CCCCC1)(c1ccccc1)c1ccccc1
  VACV mCherry inh = i
  Vaccinia Venus = -7.1%
65	O=C(Cc1ccc([N+](=O)[O-])cc1)NNC(=O)c1cccs1
  VACV mCherry inh = 0.8%
  Vaccinia Venus = 1.9%

Molecules listed so far with four or more nitrogen atoms (16):
2	Cc1ccc([N+](=O)[O-])c(C(=O)N/N=C/c2cccnc2)c1
  VACV mCherry inh = -13.5%
  Vaccinia Venus = -4.1%
5	CN1CCN(NC(=O)Nc2cccc(F)c2)CC1
  VACV mCherry inh = -16.8%
  Vaccinia Venus = -18.2%
11	Cn1ncc(Cl)c1C(=O)N1CCN(c2ccc(Cl)c(Cl)c2)CC1
  VACV mCherry inh = -14.4%
  Vaccinia Venus = -14.2%
12	CCOC(=O)c1ccc(NC(=O)Nc2c[nH]c(=O)[nH]c2=O)cc1
  VACV mCherry inh = -9.0%
  Vaccinia Venus = -6.4%
13	CC(C)Cc1nnc(NC(=O)C2CSC3(C)CCC(=O)N23)s1 (stereo not drawn)
  VACV mCherry inh = i
  Vaccinia Venus = -7.6%
14	CC[N+](C)(CC)CCC[n+]1c(-c2ccccc2)c2cc(N)ccc2c2ccc(N)cc21
  VACV mCherry inh = -12.7%
  Vaccinia Venus = -9.7%
16	CCOC(=O)CSc1nnc(CNC(=O)c2ccc([N+](=O)[O-])cc2)n1C
  VACV mCherry inh = -2.8%
  Vaccinia Venus = -4.3%
19	O=C(N[C@@H](Cc1ccccc1)C(=O)OCc1ccccc1)c1nc[nH]c1C(=O)NC1CCNCC1
  VACV mCherry inh = i
  Vaccinia Venus = -4.2%
21	CCOCCCNC(=S)N1CCCN(c2nc3cc(C)cc(C)c3cc2C#N)CC1
  VACV mCherry inh = ?
  Vaccinia Venus = -28.2%
25	CCCCn1c(N)c(N(CC)C(=O)c2cc(S(=O)(=O)N3CCN(CC)CC3)ccc2Cl)c(=O)[nH]c1=O
  VACV mCherry inh = -19.0%
  Vaccinia Venus = -5.0%
30	CCOC(=O)c1cccc(NC(=O)NC(C)c2c(-n3cccc3)sc3c2CCN(C)C3)c1 (stereo not drawn)
  VACV mCherry inh = -23.5%
  Vaccinia Venus = -15.2%
32	Cc1c(CCNC(=O)c2ccc(Br)o2)sc2nc(-c3ccc(F)cc3)nn12
  VACV mCherry inh = ?
  Vaccinia Venus = ?
34	Cc1cc(-n2c(C)cc(C(=O)CN3C(=O)NC4(CCCCC4)C3=O)c2C)no1
  VACV mCherry inh = 0.8%
  Vaccinia Venus = -8.8%
42	COc1ccc(OC)c(C2CC(=O)Nc3c2c(=O)[nH]c2ncnn32)c1 (stereo not drawn)
  VACV mCherry inh = 3.7%&6.9%
  Vaccinia Venus = -3.7%&4.6%
47	CC(C)Oc1cccc(C(=O)Nc2ncn[nH]2)c1
  VACV mCherry inh = i
  Vaccinia Venus = -7.3%
49	CC(=O)c1ccc(NC(=O)CSc2c(C(C)C)cnc3c2c(=O)n(C)c(=O)n3C)cc1
  VACV mCherry inh = -17.2%
  Vaccinia Venus = -22.0%
